# Screening results (PubChem BioAssay)
# RanGTP-Imp inh: inhibitors of RanGTP-importin-beta interaction, primary screen, biochemical, FRET, CFP-Ran, YFP-importin-beta, homogeneous | inhibition, % (test concentration not listed) | 300,000 tested, 1.1% active | cell-free CFP-Ran/YFP-importin-beta FRET ratio | Ran GTPase (GTP-bound) - importin-beta complex;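 active = most replicates above 15%; inconclusive = exactly half above 15%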;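 note: 0% = DMSO wells and 100% = Ran loaded with GDP instead of GTP; wells of about 40 µL received 100 nL stock; the first replicate is given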
# HNF4A DNA FP: change in binding of human HNF4A to DNA, primary screen, biochemical, fluorescence polarization, FITC-DNA; Hepatocyte nuclear factor 4-alpha (Homo sapiens), P41235; 1 h; activity change, % at 10 µM; 360,000 tested, 0.3% active; AID 1224865, 2016; in the data active = activity change above about 30%, passing the limit was not always enough;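 note: controls were the assay level and a saturating level of protein; the project sought stronger binding though the title names inhibitors; some compounds called inactive have numbers as strong as hits; positive values seem to mean higher polarization but the record does not say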
# Vif A3G: inhibitors of Vif binding to APOBEC3G peptide, primary screen, biochemical, TR-FRET, GST-Vif 1-94, biotin-A3G peptide, dose response retest (AID 1117319); inhibition, %, or IC50 in µM where a hit was titrated; Virion infectivity factor (Human immunodeficiency virus type 1 group M subtype B (isolate …; 260,000 tested, 0.57% active; TR-FRET GST-Vif / biotin-A3G peptide binding; higher % means a stronger effect; test concentration not given here; strong numbers were not always called active;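 active = above the screen mean plus three standard deviations and confirmed in dose response; inconclusive = results disagree or hit not tested in dose response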;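 note: Vif residues 1-94 fused to GST binding biotinylated APOBEC3G peptide 110-148; 0% = full assay without inhibitor and 100% = GST in place of GST-Vif; retest series ran down from 100 µM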
# B2AR ag: beta2AR agonists driving receptor internalization, primary screen, cell-based, FAP fluorogen, flow cytometry; Am2.2-beta2AR cells; reference of the scale not given here; response, % (no concentration beside the values); 340,000 tested, 0.43% active;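 active = response above a set limit, near 3 SD of response in nonfluorescent compounds, cut at about 42% in these data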;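 note: stock transfer was 100 nL into about 11 µL; a reference agonist was the positive control; negative values mostly stem from fluorescent compounds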
# ALR inh: inhibitors of human ALR sulfhydryl oxidase, primary screen, biochemical, H2O2 detection, HRP-luminol luminescence, single point; inhibition, % (concentration not given with the values); purified ALR, DTT oxidation; 290,000 tested, 3.8% active; FAD-linked sulfhydryl oxidase ALR (Homo sapiens), P55789;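 active = mean and each replicate at 75% or more; inconclusive = only one of the two met; inactive = neither met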;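 note: stock transfer was 7.5 nL into about 7.5 µL; 0% = neutral wells and 100% = wells with inactivated enzyme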
# Calb FLC: C. albicans growth inhibition with fluconazole, primary screen, CaCi-2 strain, Alamar Blue fluorescence; C. albicans CaCi-2 (fluconazole-resistant clinical isolate) + fluconazole, 48 h; growth inhibition, % (test concentration not listed); 300,000 tested, 0.57% active;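 active = most replicates above 75%; inconclusive = exactly half above 75%; inactive = most below 75%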;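 note: all wells also contain fluconazole at 8 µg/ml as a sub-toxic cotreatment; 0% = median of DMSO wells and 100% = median of geldanamycin control wells; wells of about 8 µL received 7.5 nL stock; the first replicate is given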
# LANA-H2B inh: blockers of LANA interaction with H2A/H2B – biochemical, FP readout, HTS, primary screen; Protein LANA1 (Human herpesvirus 8 type P (isolate GK18)), Q9QR71; cell-free LANA-H2A/H2B peptide, fluorescence polarization; inhibition, % (no concentration beside the values); 320,000 tested, 0.6% active; in the data active = inhibition mostly above about 10%, no sharp cut-off; inactive = mostly below about 6.7%;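 note: stock transfer was 7.5 nL into about 10 µL; 0% = median of vehicle wells and 100% = median of positive control wells; one replicate is shown; the record names a cut of 25% in any replicate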
# Target sequence (Q9QR71 whole entry, looked up): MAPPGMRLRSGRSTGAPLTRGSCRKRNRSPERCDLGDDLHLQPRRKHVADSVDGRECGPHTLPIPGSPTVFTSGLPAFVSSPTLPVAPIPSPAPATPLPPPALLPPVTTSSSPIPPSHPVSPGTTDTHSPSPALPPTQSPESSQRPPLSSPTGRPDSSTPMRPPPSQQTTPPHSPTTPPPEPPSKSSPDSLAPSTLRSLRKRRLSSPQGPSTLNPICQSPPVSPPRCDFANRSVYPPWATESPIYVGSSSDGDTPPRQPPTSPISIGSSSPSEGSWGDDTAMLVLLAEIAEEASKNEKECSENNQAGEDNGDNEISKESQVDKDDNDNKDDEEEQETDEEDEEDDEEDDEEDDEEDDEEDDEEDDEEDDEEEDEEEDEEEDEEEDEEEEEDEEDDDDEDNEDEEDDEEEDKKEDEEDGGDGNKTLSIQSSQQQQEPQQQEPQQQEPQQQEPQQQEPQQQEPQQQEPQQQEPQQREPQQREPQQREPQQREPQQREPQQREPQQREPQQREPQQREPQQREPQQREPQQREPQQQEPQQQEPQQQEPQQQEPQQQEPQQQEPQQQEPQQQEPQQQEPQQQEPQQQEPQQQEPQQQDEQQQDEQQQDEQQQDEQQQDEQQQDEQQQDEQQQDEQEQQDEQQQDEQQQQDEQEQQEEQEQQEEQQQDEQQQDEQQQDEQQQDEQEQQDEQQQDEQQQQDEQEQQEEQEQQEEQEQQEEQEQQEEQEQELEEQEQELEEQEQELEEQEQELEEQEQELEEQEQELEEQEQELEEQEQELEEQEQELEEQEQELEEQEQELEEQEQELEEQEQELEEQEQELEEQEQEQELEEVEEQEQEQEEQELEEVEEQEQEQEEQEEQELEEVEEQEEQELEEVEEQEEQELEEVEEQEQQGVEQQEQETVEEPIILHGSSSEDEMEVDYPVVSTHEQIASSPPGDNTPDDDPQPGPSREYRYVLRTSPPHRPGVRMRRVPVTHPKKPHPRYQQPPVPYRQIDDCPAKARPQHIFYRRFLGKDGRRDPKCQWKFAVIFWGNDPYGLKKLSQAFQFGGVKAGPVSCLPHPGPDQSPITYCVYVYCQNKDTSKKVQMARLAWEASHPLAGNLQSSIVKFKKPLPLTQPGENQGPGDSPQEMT
# An asterisk follows results filed as active; ? = inconclusive; . = no result given; & = joins results of further samples. Compounds were not picked by outcome (roughly 6.3% active in at least one column).
SMILES,RanGTP-Imp inh,HNF4A DNA FP,Vif A3G,B2AR ag,ALR inh,Calb FLC,LANA-H2B inh
O=C(O)CCc1ccc(-c2ccc(Cl)cc2)n1CC(=O)Nc1ccccc1,0.8,3.3,-3%,1,11,-1,0.5
O=C(Cc1ccc(F)cc1)N[C@@H]1c2ccccc2CC[C@H]1OCc1ccccc1,.,-2.3,-6%,9,.,.,.
CN(C)S(=O)(=O)N1CCN(CC(O)COc2ccc3cc(Br)ccc3c2)CC1 (centres undefined),-4.4,0.4,-10%&-12%,5,-46,1,4.4
CCCCOc1ccc(C(=O)Nc2ccc3c(c2)C(=O)NC3=O)cc1,4.1,0.1,.,4,.,-5,3.2
Cc1ccc(SC(c2ccccc2)C(Cn2cncn2)C(=O)c2ccccc2)cc1 (centres undefined),-4.7,2.4,7%,-1,.,-4,5.1
CCC(=O)c1ccc(N2CCN(S(=O)(=O)c3ccccc3)CC2)c(F)c1,-3.7,-3.1,.,-1,-2,0,3.5
COC(=O)Cc1c[nH]c2ccc(OCC(O)CNC(C)C)cc12 (centres undefined),?,0.3,4%,0,-38,26,0.2
O=c1c2c(c(-c3ccccc3)nn1Cc1ccccc1)CCCC2,-1.2,-0.7,-10%,-17,-2,-2,3.2
COc1ccc(-c2nnc(SCC(=O)N3CCOCC3)o2)cc1OC,6.0,-1.5,27%,-4,-3,-3,2.6
CCOC(=O)C/C(C)=N/NC(=O)CNc1cccc(Cl)c1C,0.1,-2.4,4%,9,38,0,2.2
COc1ccc(OC)c(/C=N/N=C2\SCC(=O)N2Cc2ccco2)c1,1.3,3.2,5%,-1,-5,-1,-3.2
O=C(CN1C(=O)NC(c2ccccc2)(c2ccccc2)C1=O)Nc1cccnc1Cl,1.5,0.9,-8%,-6,-4,-23,0.1
COc1ccccc1N(CC(=O)NC1CCCCC1)C(=O)CCC(=O)Nc1nccs1,-4.2,3.2,.,17,2,-12,-0.7
Cc1cc(C(=O)OCC(=O)N2CCc3ccccc32)c(C)o1,?,-2.4,26%,-11,-4,1,-2.1
Cc1ccc(C(=O)Nc2ccc(Cl)cn2)cc1S(=O)(=O)N1CCOCC1,1.3,1.4,?,-7,-5,-3,-20
CCc1ccc(S(=O)(=O)NCc2csc(C)n2)s1,-3.1,-0.8,20%,-4,-10,9,-7.9
O=C(CSc1ccc(-c2ccco2)nn1)c1cccc([N+](=O)[O-])c1,-2.6,-12,?,-2,51,-3,-0.9
COc1ccc(NC(=O)N2CCCc3cccc(C)c32)cc1,2.3,0.8,.,8,.,3,-3.9
CN(C)CCNc1cc(-c2ccncc2)nc2ccccc12,2.1,7.7,.,4,-4,-19,-2.0
N#C/C(=C\c1ccccc1)C(=O)NCCN1CCOCC1,-3.0,1.2,-4%,-3,68,6,0.0

# Compounds from the list above that contain a furan ring, fused or not (three):
SMILES,RanGTP-Imp inh,HNF4A DNA FP,Vif A3G,B2AR ag,ALR inh,Calb FLC,LANA-H2B inh
COc1ccc(OC)c(/C=N/N=C2\SCC(=O)N2Cc2ccco2)c1,1.3,3.2,5%,-1,-5,-1,-3.2
Cc1cc(C(=O)OCC(=O)N2CCc3ccccc32)c(C)o1,?,-2.4,26%,-11,-4,1,-2.1
O=C(CSc1ccc(-c2ccco2)nn1)c1cccc([N+](=O)[O-])c1,-2.6,-12,?,-2,51,-3,-0.9

# Other entries
SMILES,RanGTP-Imp inh,HNF4A DNA FP,Vif A3G,B2AR ag,ALR inh,Calb FLC,LANA-H2B inh
O=S(=O)(NCc1cc(-c2ccccc2Cl)no1)c1ccccc1,2.3,0.2,-2%,21,-7,?,-4.4
CC(Sc1nncs1)C(=O)NC1CCCCC1C (centres undefined),7.4,7.3,16%,0,29,8,1.9
CCn1nnnc1SCC(=O)N1CCCCC1,-1.7,0.0,-9%,-5,.,-1,.
Cc1c(NC(=S)NC(=O)c2sc3ccccc3c2Cl)cccc1C(=O)O,1.1,-5.5,-18%,-10,7,23,0.8
COc1ccccc1-c1ccc(NC2CCCC2)nn1,5.6,2.4,8%,-5,1,-14,1.8
O=C1c2cccc3c([N+](=O)[O-])ccc(c23)C(=O)N1c1ccccn1,-20,-25,19%,-114,31,7,-7.4
CCN(CC)c1nc(SCCOC(=O)Nc2ccccc2)nc(N(CC)CC)n1,-0.3,2.7,.,44*,.,5,0.0
CC1(C)Cc2c(C#N)c(N3CCOCC3)nc(-c3ccccc3)c2CO1,5.4,0.3,17%,-3,0,-2,-4.7
CCCCc1cc(=O)oc2cc(OCC(=O)NC3CCN(Cc4ccccc4)CC3)ccc12,2.0,4.9,7%,-7,-1,3,-4.2
CCOc1ccc(OCC(=O)N(C)c2c(N)n(Cc3ccccc3)c(=O)[nH]c2=O)cc1,5.7,2.4,5%,-4,-2,2,1.9
CSc1nnc(NC(=O)C2CCCCC2)s1,.,5.0,1%,-5,-8,.,0.8
Cc1ccc(S(=O)(=O)N2CCN(C(=O)CN3C(=O)c4ccc([N+](=O)[O-])cc4C3=O)CC2)c(C)c1,2.4,1.1,-4%,-3,-32,.,-1.3
CCOC(=O)c1ccc(Nc2ccc(-c3ccc(OC)c(OC)c3)nn2)cc1,-0.1,5.5,0%&-2%,25,-1,-1,-5.7
Cc1ccc(C)c(N=Cc2c(O)c3ccccc3oc2=O)c1,?,-1.4,-13%,-7,-7,-7,-2.0
Cc1cc(NC(=O)COC(=O)COc2cccc3c2OC(C)(C)C3)no1,2.1,-2.9,-4%,-1,-2,-5,-3.1
CCOCc1nnc(NC(=O)c2cc(OC)c(OC)cc2[N+](=O)[O-])s1,9.9,-5.3,7%,3,-25,-5,-4.6
COC(=O)c1ccc(COC(=O)CNC(=O)c2ccc(C)s2)cc1,.,1.0,-5%,5,-9,.,1.5
CCCn1c(SCC(=O)NC(C)(C)C)nnc1-c1ccco1,3.0,2.5,.,-4,-3,5,-0.2
O=C(Cc1ccc2c(c1)CCCC2)Nc1ccccc1Br,-3.3,-2.3,-3%,-13,-5,-3,4.0
O=C(Cc1nc(-c2ccc([N+](=O)[O-])cc2)cs1)Nc1ccccc1,-3.2,1.4,3%,-2,1,-15,1.6

# A draw from above in order of SMILES length, highest first:
SMILES,RanGTP-Imp inh,HNF4A DNA FP,Vif A3G,B2AR ag,ALR inh,Calb FLC,LANA-H2B inh
COc1ccc(OC)c(/C=N/N=C2\SCC(=O)N2Cc2ccco2)c1,1.3,3.2,5%,-1,-5,-1,-3.2
CCCn1c(SCC(=O)NC(C)(C)C)nnc1-c1ccco1,3.0,2.5,.,-4,-3,5,-0.2
CCc1ccc(S(=O)(=O)NCc2csc(C)n2)s1,-3.1,-0.8,20%,-4,-10,9,-7.9

# Entries from the list above that contain a Cl atom (6):
SMILES,RanGTP-Imp inh,HNF4A DNA FP,Vif A3G,B2AR ag,ALR inh,Calb FLC,LANA-H2B inh
O=C(O)CCc1ccc(-c2ccc(Cl)cc2)n1CC(=O)Nc1ccccc1,0.8,3.3,-3%,1,11,-1,0.5
CCOC(=O)C/C(C)=N/NC(=O)CNc1cccc(Cl)c1C,0.1,-2.4,4%,9,38,0,2.2
O=C(CN1C(=O)NC(c2ccccc2)(c2ccccc2)C1=O)Nc1cccnc1Cl,1.5,0.9,-8%,-6,-4,-23,0.1
Cc1ccc(C(=O)Nc2ccc(Cl)cn2)cc1S(=O)(=O)N1CCOCC1,1.3,1.4,?,-7,-5,-3,-20
O=S(=O)(NCc1cc(-c2ccccc2Cl)no1)c1ccccc1,2.3,0.2,-2%,21,-7,?,-4.4
Cc1c(NC(=S)NC(=O)c2sc3ccccc3c2Cl)cccc1C(=O)O,1.1,-5.5,-18%,-10,7,23,0.8

# Later entries.
SMILES,RanGTP-Imp inh,HNF4A DNA FP,Vif A3G,B2AR ag,ALR inh,Calb FLC,LANA-H2B inh
Cc1cc(NC(=O)Cn2cnc3c(nnn3-c3cccc(F)c3)c2=O)no1,0.3,-5.4,>100µM*,-1,-1,6,-0.1
Cc1cc(C)c2nc(NC(=O)c3ccc4c(c3)OCO4)sc2c1,0.8,-0.7,-3%,11,-1,-6,-1.1
COc1ccc(CCNC(=O)C2CCN(C(=O)c3ccc(F)cc3)CC2)cc1,2.4,1.1,.,-1,2,2,-1.8
C/C(=N\NC(=O)c1ccccc1Br)c1ccc(N2CCOCC2)cc1,3.1,3.9,-3%,9,13,26,-3.2
O=C(CCn1cnc2ccccc2c1=O)Nc1ccc(Cl)c(Cl)c1,-3.5,18,0%,5,-15,15,6.3
Cc1ccc(OCCNC(=O)c2ccc3c(c2)OCO3)cc1,0.2,-1.9,.,6,0,6,1.0
CCC(C)NC(=O)c1ccc(NC(=O)CC2SC(N3CCCCC3)=NC2=O)cc1 (centres undefined),.,2.6,-9%,2,-5,.,14
Oc1c(N=NC(=S)Nc2ccccc2F)c2ccccc2n1Cc1ccc(F)cc1,2.5,-0.2,-4%,12,-1,49,-2.4
OC1CCN(C(=S)Nc2ccc(Oc3ccccc3)cc2)CC1,-4.5,3.6,.,-23,-7,-7,2.8
Cc1ccc(C)n1-c1ccc(C(=O)Nc2ccccc2F)cc1,-0.4,4.2,-2%,7,2,-5,0.2
Cc1cc(C(=O)NNC(=O)c2sccc2C)c(C)o1,12,1.7,4%,-3,-2,8,-55
CCN(CC)/C(Sc1ccccc1)=C(\C(Cl)=C(Cl)Cl)[N+](=O)[O-],-1.2,-7.7,1%,18,?,-9,70*
CN(C)CCCOC(=O)COc1ccc(C(C)(C)C)cc1,-1.0,-5.5,-6%,3,6,-2,1.4
Cc1cccc(-c2nsc(SCC(=O)c3ccc(Cl)cc3)n2)c1,2.5,0.6,.,2,-14,-3,3.5
CCN(CC)c1cccc(OC2=NS(=O)(=O)c3ccccc32)c1,-1.2,3.2,?,0,99*,68,-2.5
O=C(CNS(=O)(=O)c1ccc(Br)cc1)Nc1ccc2c(c1)OCCO2,-2.8,1.5,.,-5,.,-5,.
COC(=O)NC(C)N1C(=O)C2C3C=CC(C3)C2C1=O (centres undefined),0.7,3.6,-10%,3,-1,3,-1.7
Cc1cc(C)cc(NC(=O)NCc2nnc(SCc3ccccc3)n2C)c1,4.3,0.4,-3%,7,-10,5,-2.3
COc1ccc(NC(=O)C2CCCN(S(=O)(=O)c3ccc4c(c3)CCCN4C(C)=O)C2)cc1Cl (centres undefined),-2.9,0.0,.,2,-4,-14,1.6
CCOC(=O)N1CCN(C(=O)c2cc(-c3ccc(F)cc3)[nH]c2C)CC1,0.9,1.4,-2%,-10,49,-5,1.8
CC(C)CC(=O)NNC(=S)NCc1ccco1,-0.5,3.0,-3%,0,72,5,1.8
O=C(Nc1cccc(NC(=O)c2ccc(Br)cc2)c1)c1ccccc1,-0.1,2.0,3%,-9,-3,0,2.2
CCSc1nnc(-c2cccnc2)n1Cc1ccco1,1.3,-1.0,33%,0,6,-4,-2.3
CC(C)OCCCNC(=O)c1cc2c(s1)CS(=O)(=O)C2,4.0,0.1,-8%,-3,-11,2,0.6

# Records above printed as active in LANA-H2B inh:
Compound	RanGTP-Imp inh	Vif A3G	B2AR ag	ALR inh	LANA-H2B inh
CCN(CC)/C(Sc1ccccc1)=C(\C(Cl)=C(Cl)Cl)[N+](=O)[O-]	-1.2	1%	18	?	70*
